HNF4A DNA FP: change in binding of human HNF4 alpha to DNA; P41235; HNF4a-FITC DNA binding, fluorescence polarization, 1 h; actives 0.3% (n = 360,000); activity change, % at 10 µM; AID 1224865; in the data active = activity change above about 30%, passing the limit was not always enough;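 note: controls were the assay level and a saturating level of protein; the project sought stronger binding though the title names inhibitors; some compounds called inactive have numbers as strong as hits; positive values seem to mean higher polarization but the record does not say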
Target sequence (P41235 whole entry, looked up): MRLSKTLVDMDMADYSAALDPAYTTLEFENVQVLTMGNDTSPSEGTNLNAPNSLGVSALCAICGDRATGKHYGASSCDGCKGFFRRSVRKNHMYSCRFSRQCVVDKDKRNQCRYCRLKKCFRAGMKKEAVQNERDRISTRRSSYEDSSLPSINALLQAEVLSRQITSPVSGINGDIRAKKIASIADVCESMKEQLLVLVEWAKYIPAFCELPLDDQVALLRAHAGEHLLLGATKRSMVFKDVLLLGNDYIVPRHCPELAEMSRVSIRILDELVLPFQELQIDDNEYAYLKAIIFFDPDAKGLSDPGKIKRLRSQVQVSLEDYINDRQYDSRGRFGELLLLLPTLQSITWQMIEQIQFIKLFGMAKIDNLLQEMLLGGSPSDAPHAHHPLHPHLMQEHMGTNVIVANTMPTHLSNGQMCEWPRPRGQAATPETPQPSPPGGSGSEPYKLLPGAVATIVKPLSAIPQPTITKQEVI
Ecoli growth: inhibitors of Escherichia coli growth. actives 0.21% (n = 330,000). OD600, 23 h; hits give low values. AID 1053175. OD600 absorbance (concentration not given with the values);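 active = OD600 absorbance below the run mean of sample wells minus 3.6 SD, in any replicate, cut at about 0.56 in these data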;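 note: stock transfer was 300 nL into about 60 µL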
Bfl-1 A1 inh: inhibitors of the anti-apoptotic protein A1, read as caspase activation; MEF A1-2A-BIM cells, Caspase-Glo 3/7 luminescence, 3 h; percent of clofoctol response, vehicle zero; caspase activation, % (concentration not given with the values); actives 0.066% (n = 330,000);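 active = over half of replicate activation scores above 10%, or exactly half above 10 with the replicate mean above 10; inconclusive = replicate mean below 10 yet half the replicates above 10; inactive = over half of replicates below 10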;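 note: wells of about 30 µL received 50 nL stock; many hits fall short of the cut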
Beta2AR agonist: agonists of human beta-2 adrenergic receptor inducing internalization; response, % (test concentration not listed); actives 0.43% (n = 340,000); P07550; Am2.2-beta2AR cells, FAP receptor internalization, flow cytometry; reference of the scale not given here;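 active = response above a set limit, near 3 SD of response in nonfluorescent compounds, cut at about 42% in these data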;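 note: stock transfer was 100 nL into about 11 µL; a reference agonist was the positive control; negative values mostly stem from fluorescent compounds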
Target sequence (P07550 whole entry, looked up): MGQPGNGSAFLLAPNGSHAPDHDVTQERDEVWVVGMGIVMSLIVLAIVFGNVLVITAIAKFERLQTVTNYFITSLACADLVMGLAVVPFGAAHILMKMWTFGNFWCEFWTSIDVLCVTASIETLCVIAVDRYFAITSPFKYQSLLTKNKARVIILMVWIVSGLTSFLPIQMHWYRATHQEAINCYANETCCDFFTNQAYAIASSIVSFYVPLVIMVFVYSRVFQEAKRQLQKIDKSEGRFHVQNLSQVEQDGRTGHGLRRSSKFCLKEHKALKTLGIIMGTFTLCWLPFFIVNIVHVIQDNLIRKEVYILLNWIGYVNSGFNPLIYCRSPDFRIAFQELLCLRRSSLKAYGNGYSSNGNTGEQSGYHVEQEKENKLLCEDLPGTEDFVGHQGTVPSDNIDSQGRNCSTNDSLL
UCH37 inh: blocks the human deubiquitinase UCH37. actives 0.33% (n = 330,000). AID 588478. purified proteasome/UCH37, Ub-AMC cleavage fluorescence. Q9Y5K5. inhibition, % (no concentration beside the values);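 active = mean of two replicates above 20%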;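 note: 0% = compound-free wells with enzyme and 100% = wells lacking proteasome; stock transfer was 100 nL into about 20 µL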
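Signal – fluorescence, ex 355 nm, em 460 nm · System – Proteasome-bound UCH37 · Input – 0.15 nM proteasome as dispensed · Timing – 30 min preincubation with enzyme, 25 min cleavage at room temperature · Read-out basis – percent inhibition of cleavage signal versus uninhibited and no-proteasome wells · Medium – Tris-HCl pH 7.4 with ATP-MgCl2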
Vif TR-FRET: inhibitors of Vif binding to APOBEC3G peptide, primary screen, biochemical, TR-FRET, GST-Vif 1-94, biotin-A3G peptide, dose response retest (AID 1117319). actives 0.57% (n = 260,000). TR-FRET GST-Vif / biotin-A3G peptide binding; higher % means a stronger effect; test concentration not given here; strong numbers were not always called active. one-dose inhibition, %; IC50 in µM for titrated hits;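 active = above the screen mean plus three standard deviations and confirmed in dose response; inconclusive = results disagree or hit not tested in dose response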;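 note: Vif residues 1-94 fused to GST binding biotinylated APOBEC3G peptide 110-148; 0% = full assay without inhibitor and 100% = GST in place of GST-Vif; retest series ran down from 100 µM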
LANA-H2B inh: blocks KSHV LANA binding to histone H2A/H2B; cell-free LANA-H2A/H2B peptide, fluorescence polarization; inhibition, % (concentration not given with the values); actives 0.6% (n = 320,000); AID 2629; in the data active = inhibition mostly above about 10%, no sharp cut-off; inactive = mostly below about 6.7%;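 note: stock transfer was 7.5 nL into about 10 µL; 0% = median of vehicle wells and 100% = median of positive control wells; one replicate is shown; the record names a cut of 25% in any replicate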
Numbers without * were called inactive.

Results for C#CC[N+](C)(C)CCN1C(=O)C2C(c3ccccc3)C=CC(c3ccccc3)C2C1=O (stereo unspecified) ?
HNF4A DNA FP: 6.0; Ecoli growth: 0.71; Bfl-1 A1 inh: 1.1; Beta2AR agonist: 0; UCH37 inh: 4.1; Vif TR-FRET: 13%; LANA-H2B inh: -1.2

Results for Cc1cnc(C(=O)OCC(=O)Nc2cccc(S(=O)(=O)N3CCOCC3)c2)cn1 ?
HNF4A DNA FP: -0.6; Ecoli growth: 0.68; Bfl-1 A1 inh: 0.3; Beta2AR agonist: 2; UCH37 inh: -2.4; Vif TR-FRET: 3%; LANA-H2B inh: -3.3

Results for CCN=C(NS(=O)(=O)c1ccc(Br)cc1)c1ccc(Cl)cc1 ?
HNF4A DNA FP: 2.4; Ecoli growth: 0.64; Bfl-1 A1 inh: 1.2; Beta2AR agonist: 4; UCH37 inh: 1.2; Vif TR-FRET: -1%; LANA-H2B inh: 4.8

What do the screens show for `O=C(CN1C(=O)/C(=C/c2ccc(Cl)cc2)SC1=S)NC1C=CS(=O)(=O)C1` (stereo unspecified)?
HNF4A DNA FP: -0.1; Ecoli growth: 0.71; Bfl-1 A1 inh: 0.8; Beta2AR agonist: 2; UCH37 inh: 4.1; LANA-H2B inh: 6.4

How did CN(C)C(=O)CNc1n[nH]c(=S)[nH]c1=O do in these assays?
HNF4A DNA FP: -1.6; Ecoli growth: 0.68; Bfl-1 A1 inh: -0.8; Beta2AR agonist: -5; UCH37 inh: 6.7; LANA-H2B inh: -4.7

Results for COc1ccc(C2CC(=O)C=C(NNS(=O)(=O)c3ccc(C)cc3)C2)cc1 (stereo unspecified) ?
HNF4A DNA FP: -2.4; Ecoli growth: 0.67; Bfl-1 A1 inh: 0.4; Beta2AR agonist: -2; UCH37 inh: -1.1

How did CCOc1ccccc1N(CC(=O)Nc1ccccc1C(=O)OC)S(C)(=O)=O do in these assays?
HNF4A DNA FP: 1.0; Ecoli growth: 0.67; Bfl-1 A1 inh: 1.2; Beta2AR agonist: 12; UCH37 inh: 0.9; Vif TR-FRET: -5%; LANA-H2B inh: 5.9

Results for CC(=O)Nc1ccc(OCC(=O)NCCc2ccc(Cl)cc2)cc1 ?
HNF4A DNA FP: -0.7; Ecoli growth: 0.71; Bfl-1 A1 inh: 0.5; Beta2AR agonist: -5; UCH37 inh: 0.7; Vif TR-FRET: 15%; LANA-H2B inh: -1.4

How did O=C(Nc1ccc(N2CCN(C(=O)c3ccccc3)CC2)c(Cl)c1)c1ccco1 do in these assays?
HNF4A DNA FP: -2.8; Ecoli growth: 0.7; Bfl-1 A1 inh: 0.3; Beta2AR agonist: 6; UCH37 inh: 0.3; Vif TR-FRET: 4%; LANA-H2B inh: -6.6

What do the screens show for `COc1ccc(Cl)cc1C(=O)CSc1nnnn1C1CCCC1`?
HNF4A DNA FP: 1.0; Ecoli growth: 0.64; Bfl-1 A1 inh: -0.4; Beta2AR agonist: -20; UCH37 inh: 6.8; Vif TR-FRET: 14%; LANA-H2B inh: 6.1

How did CCC(C)c1ccc(NC(=S)N2CCN(S(C)(=O)=O)CC2)cc1 (stereo unspecified) do in these assays?
HNF4A DNA FP: 0.6; Ecoli growth: 0.68; Bfl-1 A1 inh: -0.6; Beta2AR agonist: 13; UCH37 inh: -1.2; LANA-H2B inh: 7.3

Results for CSc1nc2c(c(=O)n1Cc1ccccc1)SC(C)C2 (stereo unspecified) ?
HNF4A DNA FP: -1.0; Ecoli growth: 0.6; Bfl-1 A1 inh: 0.6; Beta2AR agonist: -6; UCH37 inh: 1.1; Vif TR-FRET: -2%; LANA-H2B inh: -4.2

Results for COc1ccc(N(CC(=O)Nc2cccc(N(C)S(C)(=O)=O)c2)S(C)(=O)=O)cc1OC ?
HNF4A DNA FP: 10; Ecoli growth: 0.71; Bfl-1 A1 inh: 0.0; Beta2AR agonist: -14; UCH37 inh: 1.7; Vif TR-FRET: 16%; LANA-H2B inh: 5.4

How did COc1cc2cc(CN(CCCN3CCOCC3)C(=O)Nc3ccc(F)cc3)c(=O)[nH]c2cc1OC do in these assays?
HNF4A DNA FP: 2.5; Ecoli growth: 0.63; Bfl-1 A1 inh: 1.6; Beta2AR agonist: -3; UCH37 inh: -85; Vif TR-FRET: 8%; LANA-H2B inh: -3.8

What do the screens show for `CC(C)CC(=O)n1sc(NC(=O)c2ccccc2)nc1=O`?
HNF4A DNA FP: -0.6; Ecoli growth: 0.63; Bfl-1 A1 inh: -1.1; Beta2AR agonist: 15; UCH37 inh: 3.8; Vif TR-FRET: 1%; LANA-H2B inh: -2.8

What do the screens show for `Cn1c(=O)c2[nH]c(Cc3cccc4ccccc34)nc2n(C)c1=O`?
HNF4A DNA FP: -0.9; Ecoli growth: 0.73; Beta2AR agonist: 1; UCH37 inh: 1.1; Vif TR-FRET: -15%

What do the screens show for `O=c1c2cn[nH]c2[nH]c(=S)n1-c1cccc(Cl)c1`?
HNF4A DNA FP: 1.5; Ecoli growth: 0.67; Bfl-1 A1 inh: 0.3; Beta2AR agonist: 2; UCH37 inh: -0.1; Vif TR-FRET: inconclusive; LANA-H2B inh: -7.6

What do the screens show for `O=C(COC(=O)c1ccccc1)Nc1ccccc1Sc1ccccc1`?
HNF4A DNA FP: 1.5; Ecoli growth: 0.71; Bfl-1 A1 inh: 1.4; Beta2AR agonist: -3; UCH37 inh: 2.6; LANA-H2B inh: 4.0

Results for CCn1cc(/C=C(\NC(=O)c2ccc(OC)cc2)C(=O)N2CCOCC2)c2ccccc21 ?
HNF4A DNA FP: -0.9; Ecoli growth: 0.68; Bfl-1 A1 inh: -1.6; Beta2AR agonist: 8; UCH37 inh: 9.5; Vif TR-FRET: 0%; LANA-H2B inh: -5.4

Results for CC(=O)c1cc2c(cc1N(C(=O)c1ccco1)C(C(=O)NC1CCCC1)c1ccccc1F)OCO2 (stereo unspecified) ?
HNF4A DNA FP: -3.0; Ecoli growth: 0.65; Bfl-1 A1 inh: -0.6; Beta2AR agonist: 4; UCH37 inh: 0.3; Vif TR-FRET: 1%; LANA-H2B inh: -11

How did Cc1cc(/C=C2\NC(=O)N(Cc3ccc(Cl)cc3)C2=O)c(C)n1C do in these assays?
HNF4A DNA FP: 1.5; Ecoli growth: 0.69; Bfl-1 A1 inh: 1.6; Beta2AR agonist: 9; UCH37 inh: -18; Vif TR-FRET: 20%; LANA-H2B inh: 6.1

What do the screens show for `CCOc1ccc(N2CC(C(=O)NCCc3ccc(F)cc3)CC2=O)cc1` (stereo unspecified)?
HNF4A DNA FP: 5.5; Ecoli growth: 0.67; Bfl-1 A1 inh: -0.7; Beta2AR agonist: 10; UCH37 inh: 4.7; LANA-H2B inh: -5.3

Results for CCOc1ccc(NC(=O)C2CCN(S(=O)(=O)c3ccc4c(c3)C(C)(C)C(=O)N4C)CC2)cc1 ?
HNF4A DNA FP: -2.1; Ecoli growth: 0.74; Bfl-1 A1 inh: 0.5; Beta2AR agonist: 3; UCH37 inh: -0.1; LANA-H2B inh: -4.6

What do the screens show for `ClC1(CNc2ccccc2)CCN(Cc2ccccc2)CC1`?
HNF4A DNA FP: 1.9; Ecoli growth: 0.59; Bfl-1 A1 inh: -1.6; Beta2AR agonist: 4; UCH37 inh: 1.3; LANA-H2B inh: -1.3

What do the screens show for `O=C(Nc1nccs1)C1CC(=O)N(CCc2ccc(F)cc2)C1` (stereo unspecified)?
HNF4A DNA FP: 3.1; Ecoli growth: 0.69; Bfl-1 A1 inh: 0.4; Beta2AR agonist: -1; UCH37 inh: 1.6; LANA-H2B inh: -4.0

Results for CCCCC1=CC2=C(c3ccco3)C(=O)C(C)(OC(=O)c3ccc(OC)cc3)C(=O)C2=CN1C1CC1 (stereo unspecified) ?
HNF4A DNA FP: -9.8; Ecoli growth: 0.66; Bfl-1 A1 inh: -0.3; Beta2AR agonist: 6; UCH37 inh: 0.3; LANA-H2B inh: 1.9

How did CCCOC(=O)C1=C(C)N(C)C(=O)NC1c1cc2c(cc1Br)OCO2 (stereo unspecified) do in these assays?
HNF4A DNA FP: 0.9; Ecoli growth: 0.66; Bfl-1 A1 inh: -0.7; Beta2AR agonist: -8; UCH37 inh: 3.0; LANA-H2B inh: -3.7

Results for CC(=O)Nc1ccc(NC(=O)c2c(-c3ccccc3)noc2C)cn1 ?
HNF4A DNA FP: -0.9; Ecoli growth: 0.66; Bfl-1 A1 inh: -0.7; Beta2AR agonist: 4; UCH37 inh: 2.0; Vif TR-FRET: 3%; LANA-H2B inh: 1.3

How did CCCCCN1C=CC=C/C1=C\C=C(C#N)C#N do in these assays?
HNF4A DNA FP: 11; Ecoli growth: 0.66; Bfl-1 A1 inh: -0.1; Beta2AR agonist: 0; UCH37 inh: 16; Vif TR-FRET: 16%; LANA-H2B inh: -0.4

How did Cc1ccsc1CN(C(=O)c1ccc([N+](=O)[O-])cc1)C1CCS(=O)(=O)C1 (stereo unspecified) do in these assays?
HNF4A DNA FP: 1.2; Ecoli growth: 0.7; Bfl-1 A1 inh: 1.2; Beta2AR agonist: 6; UCH37 inh: 1.9; LANA-H2B inh: 0.9

What do the screens show for `CN(C)/C=C/C(=O)c1ccc2noc(-c3ccc(F)cc3)c2c1`?
HNF4A DNA FP: 5.1; Ecoli growth: 0.68; Bfl-1 A1 inh: 0.3; Beta2AR agonist: -8; UCH37 inh: 6.9; Vif TR-FRET: -5%; LANA-H2B inh: 1.8

How did Cc1ccccc1C(=O)NC(=S)Nc1ccccc1C(F)(F)F do in these assays?
HNF4A DNA FP: -1.3; Ecoli growth: 0.71; Bfl-1 A1 inh: 0.6; Beta2AR agonist: 1; UCH37 inh: 0.7; Vif TR-FRET: 9%; LANA-H2B inh: 2.6

Results for CCN(CC)CCCCOc1ccccc1OC ?
HNF4A DNA FP: -3.9; Ecoli growth: 0.73; Bfl-1 A1 inh: 0.3; Beta2AR agonist: -6; UCH37 inh: 4.4; Vif TR-FRET: 2%; LANA-H2B inh: -4.6

How did O=C(NN=Cc1ccc2c(c1)OCO2)c1ccccc1 do in these assays?
HNF4A DNA FP: -0.7; Ecoli growth: 0.68; Beta2AR agonist: -1; UCH37 inh: 9.4; Vif TR-FRET: 0%

Results for COc1ccc(C(=O)NNC(=O)c2ccc3ccccc3c2)cc1 ?
HNF4A DNA FP: 1.1; Ecoli growth: 0.7; Beta2AR agonist: 7; UCH37 inh: -0.3; Vif TR-FRET: -3%

How did Cc1cc(C)cc(NC(=O)C(c2ccccc2)N2CCN(CC(=O)N3CCCC3)CC2)c1 (stereo unspecified) do in these assays?
HNF4A DNA FP: 3.8; Ecoli growth: 0.69; Beta2AR agonist: -8; UCH37 inh: 2.5; Vif TR-FRET: -6%

How did O=C1OC(NCc2cccnc2)(c2ccc(Cl)cc2)c2ccccc21 (stereo unspecified) do in these assays?
HNF4A DNA FP: 2.4; Ecoli growth: 0.71; Bfl-1 A1 inh: 0.0; Beta2AR agonist: -4; UCH37 inh: 1.2; LANA-H2B inh: 0.1

Results for O=C(Nc1nc2cc3c(cc2s1)OCCO3)c1ccco1 ?
HNF4A DNA FP: 5.1; Bfl-1 A1 inh: -0.9; Beta2AR agonist: -11; Vif TR-FRET: 7%; LANA-H2B inh: -1.6

Reprinted at random: two records from the list
What do the screens show for `O=c1c2cn[nH]c2[nH]c(=S)n1-c1cccc(Cl)c1`?
HNF4A DNA FP: 1.5; Ecoli growth: 0.67; Bfl-1 A1 inh: 0.3; Beta2AR agonist: 2; UCH37 inh: -0.1; Vif TR-FRET: inconclusive; LANA-H2B inh: -7.6

How did O=C(NN=Cc1ccc2c(c1)OCO2)c1ccccc1 do in these assays?
HNF4A DNA FP: -0.7; Ecoli growth: 0.68; Beta2AR agonist: -1; UCH37 inh: 9.4; Vif TR-FRET: 0%

High-throughput results as filed in PubChem BioAssay.
